CDC25B CDK2 inh = human CDC25B-CDK2/CyclinA binding inhibition | P30305+P24941 | HTRF CDC25B-CDK2/CyclinA binding, anti-His/anti-Flag; hits give high values | z-score (test concentration not listed) | actives 0.72% (n = 94,000) | AID 1259370;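 further: score is relative to mean and SD of negative controls; strong numbers were not always called active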
HIV TAR-Tat = HIV-1 TAR-Tat binding disruption; HIV-1 TAR RNA, Tat peptide displacement FRET; hits give high values; z-score (no concentration beside the values); actives 0.6% (n = 100,000); AID 1259389;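 further: score is relative to mean and SD of negative controls; some compounds called inactive have numbers as strong as hits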
Starred values were filed as active, the others as inactive.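 How the source made its calls: active means z-score from 3 up in half or more of its runs; inactive means the rest.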

Screening CCc1ccc(-c2cc(C)no2)cc1S(=O)(=O)N1CCC(c2ccccc2)C1 (stereo not drawn) returned HIV TAR-Tat 0.71.
`COC(=O)c1sccc1S(=O)(=O)Nc1ccc(F)cc1Cl` gave HIV TAR-Tat 0.77.
N#Cc1c(NC(=O)c2cc(-c3ccc(Br)cc3)nc3ccccc23)sc2c1CCCC2 was read as CDC25B CDK2 inh -2.6.
`CCc1ccc(CN(C(=O)c2cc(=O)c3cc(C)ccc3o2)C2CCS(=O)(=O)C2)cc1` (stereo not drawn) gave CDC25B CDK2 inh -1.7 and HIV TAR-Tat 2.6.
COc1ccc2nc(NC(=O)c3noc4c3CCc3sccc3-4)sc2c1 was read as HIV TAR-Tat -1.
COc1ccc(C2=C(C)C(=NCCC(C)C)NS2(=O)=O)cc1 was read as CDC25B CDK2 inh -0.71 and HIV TAR-Tat 1.6.
`Cc1ccc(COc2cc3oc(=O)cc(C)c3cc2Cl)cc1` gave CDC25B CDK2 inh -2.
For CN(C)CCNc1nc2c(c(=O)n(C)c(=O)n2C)n1Cc1ccccc1 the results were CDC25B CDK2 inh -1.6.
Screening COCCOC(=O)C1=C(C)NC2=C(C(=O)CCC2)C1c1coc2ccc(C)cc2c1=O (stereo not drawn) returned CDC25B CDK2 inh -1.1 and HIV TAR-Tat -0.97.
Screening O=C(CN1C(=O)c2cccc3cccc1c23)NCCSCc1ccco1 returned CDC25B CDK2 inh 0.02 and HIV TAR-Tat -1.1.
Cn1c(=O)c2c(c3ccccc31)OC(=O)CC2c1ccsc1 (stereo not drawn) was read as CDC25B CDK2 inh 0.14 and HIV TAR-Tat -0.38.
For CC(=O)Oc1ccc2occ(-c3ccccc3)c2c1 the results were CDC25B CDK2 inh -2.5 and HIV TAR-Tat -7.5.
`COC(=O)CN1C(=O)CSc2ccc(S(=O)(=O)Nc3cc(F)ccc3F)cc21` gave HIV TAR-Tat 1.
`CCn1c(NCc2cc(C)ccc2O)nc2ccccc21` gave CDC25B CDK2 inh -1.2.
Screening COc1ccc(-n2ncc3c(NCCCOC(C)C)ncnc32)cc1 returned HIV TAR-Tat 2.2.

By substructure, the entries above containing an aryl methoxy group
COc1ccc2nc(NC(=O)c3noc4c3CCc3sccc3-4)sc2c1 was read as HIV TAR-Tat -1.
COc1ccc(C2=C(C)C(=NCCC(C)C)NS2(=O)=O)cc1 was read as CDC25B CDK2 inh -0.71 and HIV TAR-Tat 1.6.
Screening COc1ccc(-n2ncc3c(NCCCOC(C)C)ncnc32)cc1 returned HIV TAR-Tat 2.2.

Back to the main list, starting two compounds before the break.
`CCn1c(NCc2cc(C)ccc2O)nc2ccccc21` gave CDC25B CDK2 inh -1.2.
Screening COc1ccc(-n2ncc3c(NCCCOC(C)C)ncnc32)cc1 returned HIV TAR-Tat 2.2.
Screening CC(C)CCNC(=O)C1(C)Cn2nc(C(=O)NCCN3CCCCC3)cc2C(=O)N1C (stereo not drawn) returned HIV TAR-Tat 0.29.
`CCC1Sc2ccc(S(=O)(=O)N3CCc4ccccc43)cc2NC1=O` (stereo not drawn) gave HIV TAR-Tat -0.27.
For COc1ccc(-c2csc(Nc3ccc(C)cn3)n2)cc1OC the results were CDC25B CDK2 inh -0.2 and HIV TAR-Tat 0.98.
For Cc1cc(C(=O)NCc2cc3ccccc3s2)nn1C the results were CDC25B CDK2 inh 0.83.
O=c1c(NCCC2=CCCCC2)nccn1-c1ccc(F)cc1 was read as HIV TAR-Tat -3.8.
For Cc1ccc(S(=O)(=O)NCC(Sc2nnc3nc(C)cc(C)n23)c2ccccc2)cc1 (stereo not drawn) the results were CDC25B CDK2 inh -1 and HIV TAR-Tat 2.2.
CCc1cc2c3c([nH]c2cc1S(=O)(=O)NCc1cccs1)CCCC3=O was read as HIV TAR-Tat 1.7.
Screening CCOC(=O)N1CCN(C(=O)c2cc3c(=O)oc4ccc(C)cc4c3s2)CC1 returned CDC25B CDK2 inh 0.73 and HIV TAR-Tat 1.2.
`Cc1cc(C(=O)C(=O)Nc2nnc(C(C)C)s2)c(C)n1-c1ccccc1` gave CDC25B CDK2 inh -2.5 and HIV TAR-Tat 3.5.
`Cc1cc(C)cc(NC(=O)c2sc3ncnc(N4CCCC4)c3c2C)c1` gave HIV TAR-Tat 0.76.
`O=C(Nc1ccc2c(c1)OCCO2)C1CCN(c2ccccc2)C1=O` (stereo not drawn) gave HIV TAR-Tat -0.27.
For Cn1cccc1Cc1nnc(SCC(=O)NCc2ccco2)n1-c1ccccc1 the results were CDC25B CDK2 inh -0.42 and HIV TAR-Tat -0.58.
For Cc1cc(-c2ccc(C(C)C)c(S(=O)(=O)Nc3cccc(F)c3)c2)on1 the results were HIV TAR-Tat 3.3.
COc1cccc(C2CC(c3ccc(F)cc3)Nc3nc(N)nn32)c1 (stereo not drawn) was read as CDC25B CDK2 inh -1 and HIV TAR-Tat 0.24.
O=C(Cn1cnc(S(=O)(=O)N2CCOCC2)c1)N1CCN(c2ccccc2)CC1 was read as HIV TAR-Tat -1.4.
Screening CCCCCn1c(CN2CCN(CC)CC2)nc2c1c(=O)n(C)c(=O)n2C returned CDC25B CDK2 inh -0.18 and HIV TAR-Tat 1.6.
`Cc1ncc(-c2ccc(C)c(S(=O)(=O)N3CCCc4ccccc43)c2)o1` gave HIV TAR-Tat 0.8.
`Cc1csc(NC(=O)c2ccc(-c3noc(C4CC4)n3)cc2)n1` gave HIV TAR-Tat -1.4.
CCc1nn(CCCC(=O)N2CCC(C(N)=O)CC2)c(=O)c2cc3occc3n12 was read as CDC25B CDK2 inh -4.3.
For Cc1cc(=O)n2[nH]c(NCc3cccs3)nc2n1 the results were CDC25B CDK2 inh -1.1 and HIV TAR-Tat 1.9.
Cc1oc2ncnc(N3CCCCC3)c2c1C(=O)N1CCc2ccccc2C1 was read as HIV TAR-Tat 0.47.
Screening CC1CCCC(NC(=O)Cc2noc3ccccc23)C1C (stereo not drawn) returned CDC25B CDK2 inh -1.4 and HIV TAR-Tat 1.4.
For O=C(O)c1cc(-c2cc(Cl)ccc2O)nc2n[nH]c(-c3ccccc3)c12 the results were HIV TAR-Tat 4.2.
For Clc1ccccc1Cn1nnc2c(N/N=C/c3cccs3)ncnc21 the results were CDC25B CDK2 inh -0.49.
COc1ccccc1C1CC(=O)Nc2cc3c(cc21)OCO3 (stereo not drawn) was read as CDC25B CDK2 inh -0.2 and HIV TAR-Tat -0.09.
For CSc1nsc(SCC(=O)NC2=NC(=O)C(C)S2)n1 (stereo not drawn) the results were CDC25B CDK2 inh -2 and HIV TAR-Tat 3.2.
`CCOC(=O)c1c(C)n(-c2ccc(OCC)cc2)c2ccc(OC(C)=O)cc12` gave CDC25B CDK2 inh -1.8.
`O=C(Nc1cc(C(F)(F)F)ccc1N1CCC(C(F)(F)F)CC1)c1cccs1` gave CDC25B CDK2 inh 0.78.
NC(=S)N/N=C\Cc1nnnn1-c1ccc(Cl)cc1 was read as CDC25B CDK2 inh -0.44.
c1csc(CNc2nc3ccccc3n2CCN2CCCCC2)c1 was read as CDC25B CDK2 inh 1.4 and HIV TAR-Tat 1.1.

Part of the list above in order of length of the SMILES, low to high.
For Clc1ccccc1Cn1nnc2c(N/N=C/c3cccs3)ncnc21 the results were CDC25B CDK2 inh -0.49.
Screening CCCCCn1c(CN2CCN(CC)CC2)nc2c1c(=O)n(C)c(=O)n2C returned CDC25B CDK2 inh -0.18 and HIV TAR-Tat 1.6.
`Cc1ncc(-c2ccc(C)c(S(=O)(=O)N3CCCc4ccccc43)c2)o1` gave HIV TAR-Tat 0.8.

Continued.
For O=C(Nc1nnc(COc2ccc(Cl)cc2)s1)C(=O)c1c[nH]c2ccccc12 the results were CDC25B CDK2 inh -1.7 and HIV TAR-Tat 2.9.
Screening COc1cc2nc(-c3ccccc3Br)oc(=O)c2cc1OC returned CDC25B CDK2 inh -3.2.
Screening COc1ccc(-c2noc(CN(c3ccccc3)S(C)(=O)=O)n2)c(OC)c1 returned HIV TAR-Tat 1.8.
`Cc1onc(-c2ccccc2Cl)c1C(=O)N1c2ccccc2NC(=O)CC1C` (stereo not drawn) gave CDC25B CDK2 inh -1.
`Cc1cccc(N2CC(O)=C(c3nc4ccccc4[nH]3)C2=N)c1` gave CDC25B CDK2 inh -2.2 and HIV TAR-Tat 2.7.
COC(=O)Cn1ccc2cc(S(=O)(=O)N3CCCCC3)ccc21 was read as CDC25B CDK2 inh -2 and HIV TAR-Tat -0.09.
`COc1cc(-c2coc3cc(OC)c(OC)c(OC)c3c2=O)cc(OC)c1OC` gave HIV TAR-Tat 3.2.
For O=S(=O)(NS(=O)(=O)c1ccccc1)c1ccccc1 the results were CDC25B CDK2 inh -0.08.
Screening O=C1c2cccnc2C(=O)N1Cc1ccc(S(=O)(=O)N2CCSc3ccccc32)s1 returned HIV TAR-Tat 1.1.
For O=C(OCCOCCN=C1NS(=O)(=O)c2ccccc21)C1CC(=O)N(c2ccccc2)C1 (stereo not drawn) the results were CDC25B CDK2 inh -0.34 and HIV TAR-Tat 2.5.
CCOc1ccc(/C=C/c2nc(C#N)c(NCCCOC)o2)cc1 was read as CDC25B CDK2 inh -0.29 and HIV TAR-Tat 0.49.
Screening CN1CCN(CCCNC(=O)C2CCCN(c3nn4c(=O)c5c(nc4s3)CCCC5)C2)CC1 (stereo not drawn) returned HIV TAR-Tat 1.6.
Screening Cc1nn2c3c(cnc2c1-c1ccc(F)cc1)C(=O)CC(c1cccc(Cl)c1)C3 (stereo not drawn) returned CDC25B CDK2 inh -0.94 and HIV TAR-Tat 0.89.
`O=C1C2CCCC1C(c1ccccc1)NC2c1ccccc1` (stereo not drawn) gave CDC25B CDK2 inh -1.5 and HIV TAR-Tat -0.29.
Screening CN(Cc1nnc(-c2ccc3ccccc3c2)o1)c1nnc(C(F)(F)F)s1 returned CDC25B CDK2 inh -1.1.
Screening Cc1noc(C(=O)Nc2c(C)n(C)n(-c3ccccc3)c2=O)c1Cl returned CDC25B CDK2 inh -2.4 and HIV TAR-Tat 0.66.
`CCC(C)NC(=O)c1c(O)nc2ccccn2c1=O` (stereo not drawn) gave CDC25B CDK2 inh -2.2 and HIV TAR-Tat 0.13.
Screening CSc1cccc(NC(=O)Cn2c(=O)c3cccnc3n(-c3ccccc3)c2=O)c1 returned HIV TAR-Tat 1.2.
`N#Cc1c(-c2ccc(Cl)cc2)nc2n(c1=O)CCCS2` gave CDC25B CDK2 inh -2.2.
`CCn1c(=O)c2sccc2n2c(CCCC(=O)N3CCN(c4ncccn4)CC3)nnc12` gave HIV TAR-Tat -0.47.
For O=C(Nc1cccc(F)c1)c1[nH]nc2c1COc1ccccc1-2 the results were HIV TAR-Tat -0.04.
`O=C(O)CC(CC(=O)Nc1ccc2ccccc2n1)c1ccccc1` (stereo not drawn) gave CDC25B CDK2 inh -0.1.
Screening O=c1ccc(-c2ccc(S(=O)(=O)Nc3cccc(-c4ccno4)c3)o2)n[nH]1 returned HIV TAR-Tat 4.
`CCC1=NN(C(=O)C2CC2)C(O)(C(F)(F)F)C1` (stereo not drawn) gave CDC25B CDK2 inh -0.83.
Screening CCN1C(C(=O)OC)=C(OC(=O)C(C)C)c2ccccc2S1(=O)=O returned CDC25B CDK2 inh 0.71 and HIV TAR-Tat -0.42.
`CC1(C)CC(=O)CC(O)(C(F)(F)F)O1` (stereo not drawn) gave CDC25B CDK2 inh -0.12.
CC(=O)OC12CC3C(C1C(C)=NN2C(=O)C(=O)N1N=C(C)C2C4C(CC21OC(C)=O)C4(C)C)C3(C)C (stereo not drawn) was read as CDC25B CDK2 inh -0.03.
Screening O=C(NCc1csc(-c2ccccc2)n1)[C@H]1CSCN1C(=O)c1ccccc1F returned HIV TAR-Tat 1.4.
For CSc1cccc(NC(=O)c2nccnc2C(=O)O)c1 the results were CDC25B CDK2 inh -1.4 and HIV TAR-Tat 0.66.
Screening COC(=O)COc1ccc2ccccc2c1C1NC(=O)NC(C)=C1C(=O)OC (stereo not drawn) returned CDC25B CDK2 inh -0.76.
Cc1oc2ncnc(N3CCOCC3)c2c1C(=O)N1CCCCC1C (stereo not drawn) was read as HIV TAR-Tat 0.68.
`Cc1nn(S(=O)(=O)c2ccc(F)cc2)c(C)c1S(=O)(=O)N1CCC(C)CC1` gave HIV TAR-Tat 0.49.
For CCN1CCN(c2cc(N3CCC(C)CC3)c3c4c(onc24)-c2ccccc2C3=O)CC1 the results were CDC25B CDK2 inh 1.3 and HIV TAR-Tat -4.
`COCCCn1c2c(c(=O)[nH]c1=O)C(c1cccc(OC)c1)C1=C(N2)c2ccccc2C1=O` (stereo not drawn) gave CDC25B CDK2 inh -1.1 and HIV TAR-Tat 1.9.
`O=c1[nH]c(-c2cc(Br)ccc2O)nc2c1Cc1ccccc1O2` gave CDC25B CDK2 inh -1.2 and HIV TAR-Tat 0.33.
O=C(CC1(O)C(=O)N(Cc2ccccc2)c2ccc(Br)cc21)c1ccccc1O (stereo not drawn) was read as CDC25B CDK2 inh -0.1.
CCN(CC)CCn1c(NCc2cc(OC)ccc2OC)nc2ccccc21 was read as CDC25B CDK2 inh -1.2 and HIV TAR-Tat -0.32.
`O=C(Nc1ccc2c(c1)OCCO2)C1CC(=O)N(CCc2c[nH]c3ccc(Cl)cc23)C1` (stereo not drawn) gave CDC25B CDK2 inh -0.96 and HIV TAR-Tat 0.94.
Screening Cn1cccc1Cc1nnc(SCC(=O)Nc2ccc(F)cc2)n1-c1ccc(Cl)cc1 returned CDC25B CDK2 inh 1.2 and HIV TAR-Tat -1.9.
For Cc1nc2ccccc2c(=O)n1CC(=O)Nc1ccc(N(C)C)cc1 the results were CDC25B CDK2 inh -2.9.

Retrieved by compound from the entries so far (3):
For COc1ccc(-c2csc(Nc3ccc(C)cn3)n2)cc1OC the results were CDC25B CDK2 inh -0.2 and HIV TAR-Tat 0.98.
`CCn1c(=O)c2sccc2n2c(CCCC(=O)N3CCN(c4ncccn4)CC3)nnc12` gave HIV TAR-Tat -0.47.
For Cc1cc(-c2ccc(C(C)C)c(S(=O)(=O)Nc3cccc(F)c3)c2)on1 the results were HIV TAR-Tat 3.3.
